VCAM-1 up: enhancers of VCAM-1 display on endothelial cells, cell-based, plate reader, pooled HUVEC, TNFa stimulus (AID 455); HUVEC TNFa-induced VCAM-1 immunofluorescence, plate reader; numbers were filed only for top-ranked candidate wells; augmentation, % at 5 µM; 0.2% of 10,000 active;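 active = a compound raising TNF-alpha-driven VCAM-1 surface staining, with its hit status upheld on visual or statistical review; inactive = the rest, including hits rejected on review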;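 also: 0% = TNFa with vehicle and 100% = strongest image-checked hit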
Proteasome disasm: inhibitors of ATP-driven 26S proteasome dissociation, primary screen, biochemical, bead-based flow cytometry, GFP-tagged proteasome; anti-FLAG beads, GFP-proteasome disassembly; inhibition of disassembly, % (no concentration beside the values); 0.2% of 24,000 active; AID 751, 2007;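 active = above 40%; inconclusive = likely self-fluorescent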;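 also: plate controls were ATP control with full disassembly for no effect and ATP-gamma-S intact proteasomes for full effect; higher percent means more bead fluorescence retained so stronger block of disassembly; stock transfer was 100 nL into about 10 µL; wells with too few beads may also be inconclusive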
* hit, by the source's call. An excerpt, so the mix of outcomes need not match the whole.

Screening COC(=O)C1=CN(C)C=C(C(=O)OC)C1c1ccc(O)c(OC)c1 returned VCAM-1 up inactive and Proteasome disasm -1.6.
`O=C(Nc1ccccc1C(=O)NCC1CCCO1)c1ccco1` (stereo not given) gave VCAM-1 up inactive and Proteasome disasm -1.8.
O=C1NCCCC1C(=O)Nc1cccc(C(F)(F)F)c1 (stereo not given) was read as Proteasome disasm -0.2.
Screening Cc1ccc(S(=O)(=O)NCCCCC(NC(=O)OC(C)(C)C)C(=O)O)cc1 (stereo not given) (tested in a mixture with another compound) returned VCAM-1 up inactive and Proteasome disasm -1.4.
`O=C(COc1nnnc2ccccc12)N1CCCc2ccccc21` gave VCAM-1 up inactive and Proteasome disasm 0.3.
Screening CCOc1ccc(NC(=O)CN2CCN(CC(=O)Nc3ccc(F)cc3)CC2)cc1 returned Proteasome disasm -1.4.
`CCOC(=O)N1CCN(C(=O)CSc2nnc(-c3ccc(Cl)s3)o2)CC1` gave Proteasome disasm -0.9.
O=C(CCN1C(=O)COc2ccccc21)NCCN1CCN(c2ccccc2F)CC1 was read as Proteasome disasm 0.5.
Screening CCOC(=O)N1CCN(C(=O)CN(C)S(=O)(=O)c2ccc3c(c2)C(C)(C)C(=O)N3C)CC1 returned Proteasome disasm -1.8.
`COc1ccc(CCNC(=O)c2ccc3c(c2)NC(=O)C(N2CCOCC2)S3)cc1OC` (stereo not given) gave Proteasome disasm 7.3.
Screening COc1cccc(C2=NOC(C(=O)Nc3ccc(C(C)=O)cc3)C2)c1 (stereo not given) returned VCAM-1 up inactive and Proteasome disasm 1.3.
For CN(CC(O)COc1ccc(OCC(O)CN(C)C2CCCCC2)cc1)C1CCCCC1 (stereo not given) the results were VCAM-1 up inactive and Proteasome disasm -0.4.
`C=CCSc1nc2c(c(=O)[nH]c(=O)n2C)n1C(C)C` gave VCAM-1 up inactive and Proteasome disasm 0.9.
For CCOC(=O)c1ccc(NC(=O)CCNc2c(N3CCCC3)c(=O)c2=O)cc1 the results were VCAM-1 up inactive and Proteasome disasm -1.5.
For CCOC(=O)N1CCN(c2c(NCc3ccccn3)c(=O)c2=O)CC1 the results were Proteasome disasm -1.1.
`COc1ccccc1C1N(c2cc(Cl)ccc2OC)C(=O)C2CCCN21` (stereo not given) gave Proteasome disasm 0.1.
`COc1ccc(-n2ccnc2SCC(=O)NCc2ccc3c(c2)OCO3)cc1` gave VCAM-1 up inactive and Proteasome disasm 0.5.
For O=C(Nc1ccccc1C(=O)N1CCCCC1)c1cccc(S(=O)(=O)N2CCOCC2)c1 the results were Proteasome disasm -0.1.
`CCN1C(=O)/C(=C/N(C)c2ccccc2)OC1=S` gave VCAM-1 up inactive and Proteasome disasm -1.0.
`Cc1cc(C(=O)NCc2ccccc2)no1` gave Proteasome disasm 0.5.
`Cc1cccc(NC(=O)Nc2cccc(C#N)c2)n1` gave VCAM-1 up inactive and Proteasome disasm 0.4.
For Cc1ccccc1CS(=O)(=O)CCC(=O)NCCCN1CCOCC1 the results were Proteasome disasm -0.3.
For c1cncc(-c2nc3c4ccccc4nc(N4CCC(N5CCCCC5)CC4)n3n2)c1 the results were VCAM-1 up inactive and Proteasome disasm 8.4.
O=C(Nc1cc(Cl)ccc1Cl)c1noc2c1CCCC2 was read as VCAM-1 up inactive and Proteasome disasm -0.7.
Screening O=C(NCc1cccs1)c1noc2c1CCCCC2 returned Proteasome disasm -0.8.
For COc1cccc(C2Nc3ccccc3C(=O)N2O)c1O (stereo not given) the results were Proteasome disasm -1.9.
For CCOC(=O)Cc1csc(NC(=O)CN(C)S(=O)(=O)c2cccc3cccnc23)n1 the results were Proteasome disasm -1.6.
For O=c1c2ccccc2n(Cc2cccc(F)c2)c(=O)n1C1CCCC1 the results were Proteasome disasm -2.3.
`CCC(C(=O)N1CCc2cc(OC)c(OC)cc2C1)c1ccccc1` (stereo not given) gave VCAM-1 up inactive and Proteasome disasm -1.7.
For COC(=O)Nc1ccc2c(c1)ncn2C1CCCCC1 the results were Proteasome disasm -0.1.
CCOC(=O)C(C(=O)OCC)C(CC(=O)C1CC1)c1ccccc1 (stereo not given) was read as Proteasome disasm -1.1.
Cn1nc(-c2ccc(Cl)cc2)c2cc(C(=O)N3CCN(C(=O)c4ccco4)CC3)sc21 was read as Proteasome disasm -1.5.
For CCOc1cc(NC(=O)c2ccco2)c(OCC)cc1NC(=O)CCC(=O)NCc1cccnc1 the results were VCAM-1 up inactive and Proteasome disasm -0.7.
Screening CC(NC(=O)OC(C)(C)C)C(=O)N1CCCC1C(=O)NC(Cc1ccccc1)C(N)=O (stereo not given) returned VCAM-1 up inactive and Proteasome disasm 0.9.
Screening Cc1ccnc2c(N3C(=O)C4C5C=CC(C5)C4(C)C3=O)cccc12 (stereo not given) returned VCAM-1 up inactive and Proteasome disasm -0.1.
`O=C(C1CC1)N1CCc2cc(S(=O)(=O)N(CCO)Cc3ccccc3)ccc21` gave VCAM-1 up inactive and Proteasome disasm -0.8.
COc1ccc(N2CC(C(=O)Nc3ccc(F)cc3F)CC2=O)cc1 (stereo not given) was read as VCAM-1 up inactive and Proteasome disasm 0.9.
COC(=O)[C@H](C)NC(=O)Nc1cccc(C(F)(F)F)c1 was read as VCAM-1 up inactive and Proteasome disasm 2.0.
Screening CCOc1ccccc1C(=O)NCCC(=O)O returned VCAM-1 up inactive and Proteasome disasm 0.8.
`CCOC(=O)c1ccc(NS(=O)(=O)c2ccc(SC)cc2)cc1` gave VCAM-1 up inactive and Proteasome disasm -1.8.
For COc1ccc(-c2ccc(-c3nnn(CC(C)=O)n3)cc2)cc1 the results were VCAM-1 up inactive and Proteasome disasm -0.1.
`COc1ccc(NC2c3ccccc3C(=O)N2c2cccnc2)cc1Cl` (stereo not given) gave Proteasome disasm 0.2.
Screening Nc1nc2n(n1)C(c1ccccc1Cl)CC(c1ccc(F)cc1)N2 (stereo not given) returned Proteasome disasm 0.5.
Cc1cc(=O)n2nc(N3CCCC(C(=O)NCc4ccco4)C3)sc2n1 (stereo not given) was read as Proteasome disasm -1.8.
For CCOC(=O)c1sc2nc3n(c(=O)c2c1C)CCC(C)CC3 (stereo not given) the results were Proteasome disasm 2.0.
Screening CCOC(=O)N1CCC(N2CC34C=CC(O3)C(C(=O)Nc3ccc(OCC)cc3)C4C2=O)CC1 (stereo not given) returned Proteasome disasm -0.5.
For CCNc1nc(NC(C)C)nc(N(C#N)CCOc2ccc(Cl)cc2Cl)n1 the results were VCAM-1 up inactive and Proteasome disasm 0.6.
Screening COc1cc(C(=O)NCc2nnc(SCC(=O)N3CCc4ccccc43)o2)cc(OC)c1OC returned Proteasome disasm 2.0.
For CCOc1ccc(C2c3c(oc4ccccc4c3=O)C(=O)N2CCCN2CCOCC2)cc1OCC (stereo not given) the results were Proteasome disasm 2.5.
Screening COC(=O)CN(Cc1ccco1)S(=O)(=O)c1ccccc1 returned VCAM-1 up inactive and Proteasome disasm 21.
O=c1[nH]c2sc3c(c2c2nncn12)CCCC3 was read as VCAM-1 up inactive and Proteasome disasm 0.5.
CC1CC(C)CN(CCCNC(=O)c2ccc3c(c2)NC(=O)C(N2CCCCC2)S3)C1 (stereo not given) was read as VCAM-1 up inactive and Proteasome disasm 3.9.
Screening CCOC(=O)N1CCC(NC(=O)c2ccc3c(c2)sc2nc(-c4ccccc4)cn23)CC1 returned Proteasome disasm 21.
`CSc1nsc(SC)c1NC(=O)Nc1ccccn1` gave Proteasome disasm 0.5.
Screening Cc1cn(C2CC3OCC3O2)c(=O)[nH]c1=O (stereo not given) returned VCAM-1 up inactive and Proteasome disasm 0.6.
CC(C)CCNC(=O)Cn1cc2c(n1)CCCCC2 was read as Proteasome disasm 0.0.
O=C(O)c1cc2c(s1)CCCC2 was read as VCAM-1 up inactive and Proteasome disasm -3.2.
COc1ccc(Cn2nnc3c(=O)[nH]c(C4CCCN(C(=O)c5ccccc5)C4)nc32)cc1 (stereo not given) was read as Proteasome disasm -1.3.
`CC(=O)NC(Cc1ccc(F)cc1)C(=O)O` (stereo not given) gave Proteasome disasm 1.9.
For COc1cc(-c2nc3n(n2)C(c2ccc(F)cc2)C2=C(CCCC2=O)N3)cc(OC)c1OC (stereo not given) the results were Proteasome disasm -1.9.
Screening Nc1cc(=O)[nH]c(SCC(=O)Nc2ccc(Br)cc2)n1 returned VCAM-1 up inactive and Proteasome disasm -0.7.
CCc1ccc(NC(=O)c2cc(-c3ccc(OC)cc3)on2)cc1 was read as Proteasome disasm -1.8.
For Cc1ccc(C)c(N2CCN(Cc3nnnn3C3CCCCC3)CC2)c1 the results were VCAM-1 up inactive and Proteasome disasm -0.8.
Screening OC(CN1CCCCC1)Cn1c(C(F)(F)F)nc2ccccc21 (stereo not given) returned VCAM-1 up inactive and Proteasome disasm 0.0.
`CN1CC[n+]2cnc3ccccc3c21` gave VCAM-1 up inactive and Proteasome disasm -2.0.
COc1ccc(C(=O)Nc2cc(Cl)ccc2Cl)c(OC)n1 was read as Proteasome disasm -0.3.
COc1cccc(-c2cc(C(=O)N3CCc4ccccc4C3)no2)c1 was read as VCAM-1 up inactive and Proteasome disasm 2.2.
Screening COc1ccc(N2CCN(Cc3nc4c(c(=O)n(C)c(=O)n4C)n3Cc3ccccc3C)CC2)cc1 returned VCAM-1 up inactive and Proteasome disasm -0.4.
For O=C1c2ccccc2C(Nc2ccc(Cl)cn2)N1c1ccccn1 (stereo not given) the results were Proteasome disasm 0.1.
For COC(=O)Cn1c(CCS(=O)(=O)c2ccc(C)c(C)c2)nc2ccccc21 the results were Proteasome disasm 1.1.
For Cc1cc(C)nc(SCC(=O)Nc2ccc(S(=O)(=O)Nc3onc(C)c3C)cc2)n1 the results were Proteasome disasm 0.8.
Screening COc1cccc(N2C(=O)Nc3ccccc3C2(O)C(=O)NCc2ccc3c(c2)OCO3)c1 (stereo not given) returned Proteasome disasm 0.0.

5 records picked at random from the list so far:
Screening COc1cccc(N2C(=O)Nc3ccccc3C2(O)C(=O)NCc2ccc3c(c2)OCO3)c1 (stereo not given) returned Proteasome disasm 0.0.
COc1cccc(-c2cc(C(=O)N3CCc4ccccc4C3)no2)c1 was read as VCAM-1 up inactive and Proteasome disasm 2.2.
For Cc1cc(C)nc(SCC(=O)Nc2ccc(S(=O)(=O)Nc3onc(C)c3C)cc2)n1 the results were Proteasome disasm 0.8.
COc1ccc(C(=O)Nc2cc(Cl)ccc2Cl)c(OC)n1 was read as Proteasome disasm -0.3.
`CN1CC[n+]2cnc3ccccc3c21` gave VCAM-1 up inactive and Proteasome disasm -2.0.

6 entries from above, ordered by count of non-hydrogen atoms, largest number first.
`COc1ccc(CCNC(=O)c2ccc3c(c2)NC(=O)C(N2CCOCC2)S3)cc1OC` (stereo not given) gave Proteasome disasm 7.3.
Cn1nc(-c2ccc(Cl)cc2)c2cc(C(=O)N3CCN(C(=O)c4ccco4)CC3)sc21 was read as Proteasome disasm -1.5.
COc1cccc(-c2cc(C(=O)N3CCc4ccccc4C3)no2)c1 was read as VCAM-1 up inactive and Proteasome disasm 2.2.
CCc1ccc(NC(=O)c2cc(-c3ccc(OC)cc3)on2)cc1 was read as Proteasome disasm -1.8.
Screening COC(=O)CN(Cc1ccco1)S(=O)(=O)c1ccccc1 returned VCAM-1 up inactive and Proteasome disasm 21.
COC(=O)[C@H](C)NC(=O)Nc1cccc(C(F)(F)F)c1 was read as VCAM-1 up inactive and Proteasome disasm 2.0.

Next part:
`COc1ccc(C(CC(=O)O)NC(=O)c2ccccc2)cc1OC` (stereo not given) gave VCAM-1 up inactive and Proteasome disasm -1.6.
For CO[C@@]1(NC(=O)CSCC#N)C(=O)N2C(C(=O)O)=C(CSc3nnnn3C)CS[C@@H]21 the results were VCAM-1 up inactive and Proteasome disasm -0.6.
CCC(C)NC(=O)C1c2ccccc2C(=O)N1Cc1ccccc1OC (stereo not given) was read as Proteasome disasm -0.8.
`COCCN1Cc2cccc(C(=O)Nc3ccc(C)c(C)c3)c2C1=O` gave Proteasome disasm 0.2.
`COc1ccc(NC(=O)CN2CCN(CC(=O)Nc3cc(OC)cc(OC)c3)CC2)cc1` gave VCAM-1 up inactive and Proteasome disasm 0.9.
CCN(CCCNC(=O)c1c(C)cc(=O)oc1C)c1ccccc1 was read as Proteasome disasm 0.4.
CCCc1cc(=O)[nH]c(Nc2ccc(OC)c(Cl)c2)n1 was read as VCAM-1 up inactive and Proteasome disasm 1.1.
Screening CCOC(=O)c1cc(C)sc1N1C(=O)C2C3C=CC(C3)C2C1=O (stereo not given) returned VCAM-1 up inactive and Proteasome disasm -3.3.
For COc1ccc(-c2ccc(Nc3ccc(S(=O)(=O)N4CCCC4)cc3)nn2)cc1OC the results were VCAM-1 up inactive and Proteasome disasm 4.8.
Screening COc1cccc2sc(=NC(=O)c3ccc(S(=O)(=O)N4CCOCC4)cc3)n(C)c12 returned Proteasome disasm -0.3.
Screening COc1ccc(N2C(=O)C3CCCN3C2c2cccc(C)c2)cc1 (stereo not given) returned Proteasome disasm 0.1.
For CCOCCCNS(=O)(=O)c1cc(Br)cc2c1N(C(=O)C1CC1)CC2 the results were Proteasome disasm 4.8.
`O=C(CC1Nc2ccccc2NC1=O)NCCCN1CCCCCC1` (stereo not given) gave Proteasome disasm 0.2.
Screening Cc1cccc(CC2CC(=O)N(c3ccccc3)C2=O)c1 (stereo not given) returned VCAM-1 up inactive and Proteasome disasm -1.1.
Cn1cc(C2NC(=O)c3c(sc4c3CCCC4)N2)c2ccccc21 (stereo not given) was read as VCAM-1 up inactive and Proteasome disasm inconclusive.
`CC1=C(C(=O)Nc2ccccc2)C(c2ccco2)C(C#N)=C(SCC(=O)Nc2cccc(C)c2C)N1` (stereo not given) gave VCAM-1 up inactive and Proteasome disasm 3.6.
For O=C(NCc1cccs1)C(NS(=O)(=O)c1cccc2nsnc12)c1ccccc1 (stereo not given) the results were Proteasome disasm -1.1.
